Screens as filed in PubChem.
rRNA inh HTS – inhibits bacterial ribosomal RNA function over humanized ribosomes | E. coli WT GFP vs humanized-ribosome RFP mutants, fluorescence, 24 h; active compounds read low; DMSO median 0, no signal -100 | GFP signal change (wild-type ribosome), % (test concentration not listed) | 1.6% of 350,000 active;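 active means significant combined selectivity score with lowered wild-type GFP, culture density cut under 30%, mutant RFP and density less affected; inactive means any of these conditions unmet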; further: one replicate is shown; some compounds called inactive have numbers as strong as hits
rRNA inh HTS OD600 – also measured in rRNA inh HTS; calls as there; OD600 change, %; measured here: OD600 growth;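 optical density of the mix in the first replicate; 0 = DMSO median and -100 = no signal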
rRNA inh HTS RFP – further read-out of rRNA inh HTS, marked with its call; RFP signal change, %; measured here: RFP humanized mutant strains;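 first replicate; 0 = DMSO median and -100 = no signal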
* = called active by the depositor; & = joins results of further samples. A portion of the library; count on the stated rates, not on these rows.

No.	SMILES	rRNA inh HTS RFP	rRNA inh HTS	rRNA inh HTS OD600
1	COc1ccc2c3c([nH]c2c1)[C@@H](CO)N(Cc1cccnc1)CC31CN(C(=O)c2cccnc2)C1	0.0	0	3
2	COC(=O)C1(C)CCCC2(C)C3CCC(C(C)C)C(CO)C3C(CO)CC12 (stereo unspecified)	-18	-62	-79
3	C[C@@H]1CN([C@@H](C)CO)C(=O)c2cccc(NS(=O)(=O)c3cn(C)cn3)c2O[C@H]1CN(C)Cc1ccc(C(=O)O)cc1	-4.2	3	16
4	CCC(=O)N1CCC(C)(C(=O)Nc2nccc3ccccc23)C1 (stereo unspecified)	1.5	3	1
5	C[C@@H]1CN([C@@H](C)CO)C(=O)Cc2cc(NC(=O)Cc3ccccc3)ccc2O[C@@H]1CN(C)C(=O)Nc1ccc2c(c1)OCO2	-1.1	4	17
6	C[C@@H]1CN([C@H](C)CO)C(=O)c2cc(C#CCN(C)C)cnc2O[C@H]1CN(C)Cc1ccncc1	-1.1	-1	16
7	COc1ccc(S(=O)(=O)N(C)C[C@@H]2Oc3ccc(NS(=O)(=O)c4ccccc4)cc3CC(=O)N([C@@H](C)CO)C[C@H]2C)cc1	1.0	1	-8
8	CC(=O)N1C[C@H]2[C@@H](c3ccccc31)[C@H](CO)N2C(=O)c1ccc(F)cc1	-2.1	9	12
9	CC(=O)N(c1ccccc1)c1ccccc1[N+](=O)[O-]	-0.3	-1	-3
10	C[C@H](CO)N1C[C@H](C)[C@@H](CN(C)C)Oc2ccc(NS(C)(=O)=O)cc2C1=O	-0.9	1	9
11	COCC(=O)Nc1ccc2c(c1)C(=O)N(C)[C@@H]1CC[C@@H](CC(=O)NCc3ccccc3)O[C@H]1CO2	-1.3	4	9
12	Cc1cc(NC(=O)CSCC(=O)OCC(=O)c2ccc(Br)cc2)no1	-0.7	1	-3
13	CN(C)C(=O)C[C@H]1C[C@H]2c3cc(NC(=O)NC4CCCC4)ccc3O[C@H]2[C@@H](CO)O1	-1.3	3	-1
14	COc1ccc(NC(=O)Nc2ccc3c(c2)C(=O)N([C@H](C)CO)C[C@H](C)[C@H](CN(C)S(=O)(=O)c2ccc(F)cc2)OCCCC[C@@H](C)O3)cc1	-0.2	5	8
15	CO[C@@H](CN(C)CC1CCOCC1)[C@H](C)CN(C(=O)Nc1ccc(F)cc1)[C@H](C)CO	1.4	2	21
16	O=S(=O)(c1cccs1)N1CCCCC1	3.0	18	20
17	CCS(=O)(=O)Nc1ccc2c(c1)C(=O)N(C)[C@H]1CC[C@@H](CC(=O)NC3CCCCC3)O[C@H]1CO2	-1.6	0	4
18	COC(=O)C[C@H]1CC[C@@H]2[C@H](COc3ccc(NS(=O)(=O)c4ccccc4Cl)cc3C(=O)N2C)O1	-1.8	1	-1
19	Cc1noc(C)c1S(=O)(=O)N(C)C[C@H]1Oc2ccc(NS(=O)(=O)c3ccccc3)cc2CC(=O)N([C@H](C)CO)C[C@H]1C	-0.2	1	5
20	C[C@@H]1CCCCO[C@H](CN(C)C(=O)Nc2ccc(F)cc2)[C@H](C)CN([C@H](C)CO)C(=O)c2cc(NC(=O)c3ccccc3)ccc2O1	11	1	8
21	COC(=O)C1=CN(c2ccc(OC)cc2)C(N)=C(C#N)C1c1cccc2ccccc12 (stereo unspecified)	-4.9	-16	-9
22	COc1cccc(-c2ccc([C@H]3[C@H](CO)N4C(=O)CN(C(=O)c5ccncc5)C[C@@H]34)cc2)c1	-1.1	3	1
23	O=C(NCc1ccccc1)/C(=C\c1ccc(F)cc1)NC(=O)c1ccco1	1.8	-4	-7
24	C[C@@H]1CN([C@H](C)CO)C(=O)c2cc(NC(=O)Nc3ccccc3)ccc2O[C@@H]1CN(C)CC1CCCCC1	-2.4	2	1
25	C[C@H](CO)N1C[C@H](C)[C@@H](CN(C)S(=O)(=O)c2ccc(F)cc2)Oc2ccc(NC(=O)Nc3cccc4ccccc34)cc2CC1=O	-2.5	-1	11
26	CC(=O)N(C)C[C@@H]1Oc2cc(-c3ccccc3)ccc2S(=O)(=O)N([C@@H](C)CO)C[C@H]1C	-4.0	-2	-13
27	C[C@H]1CN([C@@H](C)CO)S(=O)(=O)c2ccc(C3=CCCC3)cc2O[C@@H]1CN(C)C(=O)c1ccc(F)cc1	6.8	-1	-29
28	CCCC#Cc1ccc2c(c1)O[C@H](CN(C)CC1CCOCC1)[C@H](C)CN([C@@H](C)CO)S2(=O)=O	-2.3	0	2
29	CN(C)CC(=O)N1CC2(C1)[C@@H](c1ccccc1)[C@@H](CO)N2C(=O)C1CC1	-1.3	2	19
30	O=C(C[C@@H]1C[C@H]2c3cc(NS(=O)(=O)c4ccc(F)cc4)ccc3O[C@H]2[C@H](CO)O1)N1CCc2ccccc2C1	2.8	-20	-40

Continued; the last 2 above are carried over.
No.	SMILES	rRNA inh HTS RFP	rRNA inh HTS	rRNA inh HTS OD600
29	CN(C)CC(=O)N1CC2(C1)[C@@H](c1ccccc1)[C@@H](CO)N2C(=O)C1CC1	-1.3	2	19
30	O=C(C[C@@H]1C[C@H]2c3cc(NS(=O)(=O)c4ccc(F)cc4)ccc3O[C@H]2[C@H](CO)O1)N1CCc2ccccc2C1	2.8	-20	-40
31	CC(C)C#Cc1ccc2c(c1)O[C@@H](CN(C)Cc1ccccc1)[C@@H](C)CN([C@H](C)CO)S2(=O)=O	2.3	-4	-23
32	O=C(c1ccccc1)N1[C@H](CO)[C@H](c2ccccc2)C12CN(CCC(F)(F)F)C2	4.1	2	-4
33	CCCNC(=O)N1C[C@H](O)COC[C@@H]2O[C@@H](CC(=O)OC)CC[C@H]21	0.6	2	-5
34	CC(C)NC(=O)N1CC2(C1)[C@H](c1ccccc1)[C@@H](CO)N2Cc1ccccc1	-0.9	3	7
35	CCc1nc2ccc(C(=O)Nc3cccc(OCC(=O)N(C)C)c3)cn2c1N(CC)CCN(C)C	-2.1	15	11
36	Cc1noc(C)c1S(=O)(=O)Nc1ccc2c(c1)C(=O)N([C@H](C)CO)C[C@@H](C)[C@@H](CN(C)C(=O)NC1CCCCC1)O2	-4.2	-1	4
37	O=C(C[C@H]1C=C[C@H](NC(=O)C2CC2)[C@H](CO)O1)Nc1ccccc1	-0.5	1	-5
38	C=CCSc1nnc(NC(=O)c2ccc3c(c2)OCCO3)s1	-1.4	6	13
39	C[C@H](CO)N1C[C@H](C)[C@H](CN(C)C(=O)Nc2cccc3ccccc23)OCCCC[C@H](C)Oc2ccc(NC(=O)Nc3cccc4ccccc34)cc2C1=O	3.1	7	-4
40	COc1ccc(C#Cc2ccc3c(c2)[C@@H]2[C@@H](CCN2C(=O)C2CC2)[C@H](CO)N3)cc1	1.2	-3	-7
41	C[C@@H]1CN([C@@H](C)CO)C(=O)c2cccc(NC(=O)C3CC3)c2O[C@@H]1CN(C)C(=O)Nc1cccc2ccccc12	0.4	4	6
42	C[C@H]1CN([C@@H](C)CO)S(=O)(=O)c2ccc(C#CCN(C)C)cc2O[C@@H]1CN(C)C(=O)C1CCC1	-2.7	0	4
43	C[C@@H]1CN([C@H](C)CO)C(=O)c2c(c3ccccc3n2C)-c2ccccc2CO[C@@H]1CN(C)C(=O)c1ccncc1	-3.2	-5	6
44	Cc1ccc(S(=O)(=O)N(C)C[C@@H]2Oc3ccc(NS(=O)(=O)c4c(C)noc4C)cc3C(=O)N([C@H](C)CO)C[C@H]2C)cc1	-3.0	-2	-4
45	C[C@@H]1CN([C@H](C)CO)S(=O)(=O)c2ccc(-c3cccnc3)cc2O[C@@H]1CN(C)C(=O)C1CC1	1.0	-2	-11
46	COCC(=O)N(C)C[C@H]1Oc2ncc(-c3ccccc3OC)cc2C(=O)N([C@H](C)CO)C[C@H]1C	-2.1	3	10
47	CO[C@@H]1CN(C)C(=O)c2ccc(NC(=O)C3CC3)cc2OC[C@H](C)N(C(=O)C2CCOCC2)C[C@@H]1C	0.2	3	0
48	C[C@H](CO)N1C[C@H](C)[C@@H](CN(C)S(=O)(=O)c2ccc3c(c2)OCCCO3)OCc2cnnn2CCCC1=O	-1.2&0.0	5&1	7&2
49	CN(C)C(=O)c1cc2c(c(-c3cccc(-c4ccc(F)cc4)c3)n1)[C@H](CCO)N([S@@](=O)C(C)(C)C)C2	10	-2	10
50	COc1ccc2c3c(n(C)c2c1)[C@H](CO)N(C(=O)c1ccc(F)cc1)CC31CCN(C(=O)c2ccc(F)cc2)CC1	2.1	-4	-1
51	C[C@H](NC(=O)C[C@@H]1C[C@@H]2c3cc(NC(=O)CC4CC4)ccc3O[C@@H]2[C@H](CO)O1)c1ccccc1	-2.2	-2	-3
52	CO[C@@H]1CN(C)C(=O)c2ccc(NC(=O)C3CC3)cc2OC[C@H](C)N(CC2CCCC2)C[C@@H]1C	-2.6	1	-3
53	C[C@@H]1CCCCO[C@H](CN(C)C(=O)Cc2ccccc2)[C@H](C)CN([C@H](C)CO)C(=O)c2cc(NC(=O)Nc3ccccc3)ccc2O1	2.8	-3	-2
54	Cc1ccc(S(=O)(=O)N2CCCCC2)cc1NC(=O)C1COc2ccccc2O1 (stereo unspecified)	-2.4	-11	-30
55	COc1ccc(-c2ccc([C@H]3[C@@H](CO)N4C(=O)CN(C(=O)c5cccnc5)C[C@@H]34)cc2)cc1	1.0	0	9
56	CCCNC(=O)N(C)C[C@H]1Oc2cc(C#CC(C)C)ccc2S(=O)(=O)N([C@H](C)CO)C[C@H]1C	-1.7	-6	-3
57	C[C@@H]1CN([C@@H](C)CO)C(=O)c2cc(NC(=O)CCC(F)(F)F)ccc2O[C@H]1CN(C)C(=O)Nc1ccc(F)cc1	-3.6	-2	-3
58	COc1cccc(NC(=O)C[C@H]2CC[C@H]3[C@@H](COc4ccc(NC(=O)C5CCCC5)cc4C(=O)N3C)O2)c1	0.6	-2	-6
59	C[C@H]1CN([C@@H](C)CO)C(=O)c2cccc(NS(=O)(=O)c3ccccc3)c2O[C@H]1CN(C)S(=O)(=O)c1cn(C)cn1	-2.4	6	9
60	CN(Cc1cnn(-c2ccccc2)c1)C(=O)c1ccc(S(=O)(=O)NCc2ccco2)cc1	4.3	-8	-9

Record cards, from the list above. Order of values: rRNA inh HTS RFP | rRNA inh HTS | rRNA inh HTS OD600
CO[C@@H]1CN(C)C(=O)c2ccc(NC(=O)C3CC3)cc2OC[C@H](C)N(C(=O)C2CCOCC2)C[C@@H]1C is listed with 0.2 | 3 | 0
CC(C)C#Cc1ccc2c(c1)O[C@@H](CN(C)Cc1ccccc1)[C@@H](C)CN([C@H](C)CO)S2(=O)=O is listed with 2.3 | -4 | -23
C[C@@H]1CN([C@H](C)CO)S(=O)(=O)c2ccc(-c3cccnc3)cc2O[C@@H]1CN(C)C(=O)C1CC1 is listed with 1.0 | -2 | -11
C[C@@H]1CN([C@@H](C)CO)C(=O)c2cc(NC(=O)CCC(F)(F)F)ccc2O[C@H]1CN(C)C(=O)Nc1ccc(F)cc1 is listed with -3.6 | -2 | -3
C[C@@H]1CN([C@@H](C)CO)C(=O)c2cccc(NC(=O)C3CC3)c2O[C@@H]1CN(C)C(=O)Nc1cccc2ccccc12 is listed with 0.4 | 4 | 6

The list goes on.
No.	SMILES	rRNA inh HTS RFP	rRNA inh HTS	rRNA inh HTS OD600
61	COC(=O)C[C@H]1CC[C@H]2[C@@H](COc3ccc(NC(=O)c4ccccc4F)cc3C(=O)N2C)O1	-1.3	-1	2
62	CCCNC(=O)N(C)C[C@H]1Oc2cc(-c3ccncc3)ccc2S(=O)(=O)N([C@H](C)CO)C[C@@H]1C	-3.0	2	3
63	CCNC(=O)C[C@H]1CC[C@H]2[C@@H](COc3ccc(NC(=O)Nc4cccc(C)c4)cc3C(=O)N2C)O1	2.6	3	-1
64	O=C1NC(c2ccccc2)(c2ccccc2)C(=O)N1CNc1ccccn1	1.2	9	18
65	CO[C@H]1CN(C)C(=O)c2cc(NS(=O)(=O)c3ccc(-c4ccccc4)cc3)ccc2OC[C@H](C)NC[C@H]1C	5.2	-1	3
66	CN(C)c1ccc(-c2csc(C(O)c3ccccc3)n2)cc1 (stereo unspecified)	-3.3	-2	-35
67	CC(C)CC#Cc1ccc2c(c1)O[C@@H](CN(C)C(=O)Cc1ccccc1)[C@H](C)CN([C@@H](C)CO)S2(=O)=O	5.4	-6	-17
68	O=C(C[C@H]1C=C[C@@H](NC(=O)c2ccc3c(c2)OCO3)[C@@H](CO)O1)NC1Cc2ccccc2C1	0.3	-5	-3
69	CNC[C@@H]1Oc2ccc(N(C)C)cc2CC(=O)N([C@@H](C)CO)C[C@@H]1C	-5.4	6	24
70	C[C@@H]1CN([C@@H](C)CO)S(=O)(=O)c2ccc(Br)cc2O[C@@H]1CN(C)C(=O)C1CCCCC1	0.0	-5	-9
71	Cc1ccc(S(=O)(=O)N2CC(CBr)=CCC2c2ccccc2)cc1 (stereo unspecified)	3.6	-13	-12
72	C[C@H](NC(=O)C[C@H]1C[C@@H]2c3cc(NC(=O)NC4CCCCC4)ccc3O[C@@H]2[C@@H](CO)O1)c1ccccc1	0.0	3	0
73	CO[C@@H]1CN(C)C(=O)c2cc(NC(=O)Nc3ccccc3F)ccc2OC[C@H](C)NC[C@H]1C	-1.0	0	0
74	O=C(C1CCC1)N1CC(=O)N2[C@H](CO)[C@H](c3ccc(-c4cccnc4)cc3)[C@@H]2C1	-0.8	3	12
75	COc1ccc(NC(=O)Nc2ccc3c(c2)[C@H]2C[C@@H](CC(=O)NCc4ccncc4)O[C@@H](CO)[C@H]2O3)cc1	1.0	10	12
76	COc1ccc(NC(=O)N(C)C[C@@H]2Oc3c(NC(=O)c4ccncc4)cccc3C(=O)N([C@@H](C)CO)C[C@H]2C)cc1	-3.9	6	5
77	C[C@@H]1CN([C@H](C)CO)C(=O)Cc2cc(NS(=O)(=O)c3ccc(Cl)cc3)ccc2O[C@H]1CN(C)C(=O)NC1CCCCC1	-2.2	1	-4
